# Screening results from PubChem BioAssay.
# RGS16-Gao HTS = modulates binding between human RGS16 and Galphao; binding response (% of control), % at 10 µM; O15492+P09471; AID 1441; 220,000 compounds, 0.38% hits; bead-based flow cytometry RGS16-Galphao binding, fluorescence; actives lie on both sides;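 active means below 25% or above 175%, edge rows of some plates excepted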;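 further: Galphao activated by GDP with aluminum fluoride before binding; 100% = wells without compound and 0% = beads without RGS; some results beyond the cut were filed as inactive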
# Target sequence (O15492 whole entry, looked up): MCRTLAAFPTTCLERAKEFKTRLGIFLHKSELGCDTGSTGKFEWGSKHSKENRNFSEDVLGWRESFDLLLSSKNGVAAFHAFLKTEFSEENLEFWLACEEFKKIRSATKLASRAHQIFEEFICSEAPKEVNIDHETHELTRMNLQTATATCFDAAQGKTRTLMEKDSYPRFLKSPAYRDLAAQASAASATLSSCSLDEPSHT
# Target sequence (P09471 whole entry, looked up): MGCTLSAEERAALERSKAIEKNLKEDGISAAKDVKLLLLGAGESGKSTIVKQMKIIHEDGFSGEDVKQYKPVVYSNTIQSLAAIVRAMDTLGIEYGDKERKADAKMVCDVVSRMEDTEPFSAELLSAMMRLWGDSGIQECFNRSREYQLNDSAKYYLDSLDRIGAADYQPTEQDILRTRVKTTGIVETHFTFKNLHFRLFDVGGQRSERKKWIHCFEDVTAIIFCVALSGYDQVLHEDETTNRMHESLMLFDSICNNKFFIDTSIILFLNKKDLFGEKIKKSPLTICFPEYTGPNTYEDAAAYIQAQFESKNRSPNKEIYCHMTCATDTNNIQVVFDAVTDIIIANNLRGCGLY
# HSV augment = increases HSV replication in cells; 220,000 compounds, 0.005% hits; HSV replication augmentation in cells, fold increase; AID 1956; maximum fold increase;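 active means peak rise of 1.5-fold or more in the series; inconclusive means self-fluorescent or not available for retest; tested in PC3 cells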;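 further: first round at 10 µM; read as green reporter fluorescence; hits show the peak of a series up to 25 µM; 1 = signal of infected wells without compound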
# INS promoter inh = TRM-6 insulin promoter activity inhibition. inhibition, % at 2 µM. 130,000 compounds, 0.9% hits. AID 1273. TRM-6 cells (human fetal islet line), insulin promoter-eGFP reporter, imaging; reporter expression induced with tamoxifen;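 active means inhibition above the mean plus 3 SD, with well images judged a real hit on visual review, cut at about 60% in these data, passing the limit was not always enough; inconclusive means inhibition over the cutoff but images rejected on review; inactive means inhibition not above the cutoff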
# PKD1 inh = PKD1 (human) kinase inhibition. PKD1 kinase fluorescence polarization assay. inhibition, %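 (about 10 µM by stock and volumes)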. 200,000 compounds, 0.056% hits;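 active means inhibition of 50% or more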;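 further: controls were vehicle for no effect and a reference inhibitor for full effect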
# GALR2 ag = GALR2 (human) receptor agonism | activation, %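 (tested at 5 µM)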 | 140,000 compounds, 0.48% hits | O43603 | AID 803 | GALR2-expressing cells, agonist activation read-out;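 active means above mean plus 3 SD of all compounds, about 5% in these data, not always enough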;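 further: 0% = vehicle buffer wells and 100% = reference agonist at full effect; tested in CHO reporter cells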
# Target sequence (O43603 whole entry, looked up): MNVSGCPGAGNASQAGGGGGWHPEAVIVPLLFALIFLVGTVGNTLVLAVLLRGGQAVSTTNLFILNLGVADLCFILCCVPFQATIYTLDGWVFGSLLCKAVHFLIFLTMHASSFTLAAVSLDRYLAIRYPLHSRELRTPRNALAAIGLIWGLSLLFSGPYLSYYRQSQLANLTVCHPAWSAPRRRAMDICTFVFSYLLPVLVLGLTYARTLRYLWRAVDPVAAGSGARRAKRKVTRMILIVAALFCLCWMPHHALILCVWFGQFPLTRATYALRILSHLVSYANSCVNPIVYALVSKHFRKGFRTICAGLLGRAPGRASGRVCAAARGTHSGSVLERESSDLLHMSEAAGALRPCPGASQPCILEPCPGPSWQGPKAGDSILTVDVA
# INS promoter inh cell count = recorded beside INS promoter inh, whose call it bears; normalized cell count, %; measured here: cell count, toxicity; reference of the scale not given here;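 cells exposed to compound for 48 h; stained nuclei by imaging scaled within each plate; lower means fewer cells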
# HSV augment primary fold = recorded beside HSV augment, whose call it bears; fold increase; compound at 10 µM; measured here: primary screen fold increase 10 uM; tested in PC3 cells;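 GFP signal in the first replicate; 1 = infected wells without compound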
# An asterisk follows results filed as active; i = inactive; ? = inconclusive; . = no result given.
SMILES,RGS16-Gao HTS,HSV augment,HSV augment primary fold,INS promoter inh,INS promoter inh cell count,PKD1 inh,GALR2 ag
CCOC(=O)Cc1c(C)nc(-c2ccccc2)[nH]c1=O,101,i,1,.,.,3,-1.1
Cc1cc(C(F)(F)F)nn1CCCNC(=O)c1cnccn1,104,i,0.96,-12,118,-3,-1.3
C#Cc1ccc([C@@H]2C=C(C(=O)O)O[C@H](OCc3ccc(CO)cc3)C2)cc1,112,i,0.74,.,.,-2,.
CCCCc1c(C(=O)O)cc(OC)cc1C(=O)O,103,i,0.97,48,150,-11,-1.4
CC(=O)Nc1ccc(OCC(=O)c2ccc(C)cc2C)cc1,104,i,0.94,62,69,-3,-1.8
O=C(CN1C(=O)NC2(CCCCC2)C1=O)NCCC1=CCCCC1,99,i,0.73,4,87,0,-0.7
CC(C)c1ccc(NC(=O)CCN2C(=O)c3ccc([N+](=O)[O-])cc3C2=O)cc1,67,i,0.93,-14,106,-2,-3.2
O=C(O)CSc1ccc(NC(=O)Nc2ccccc2F)cc1,102,i,1.1,.,.,.,.
Cc1nc2ccccc2c(=O)n1NS(C)(=O)=O,100,i,1.1,-13,122,-12,-1.5
O=C(COc1ccc(Cl)cc1)Nc1ncccn1,104,i,0.99,35,114,-9,-1.2
CCOC(=O)/C(C#N)=C1/SC(C)C(=O)N1c1ccc(Br)cc1 (centres undefined),100,i,1,27,120,-4,-0.7
CC(=O)C1=C(O)CC(C)(C)CC1=NCCc1nc2ccccc2[nH]1,116,i,1,-47,107,-4,.
c1nc(COc2nsnc2N2CCOCC2)cs1,101,i,0.97,9,100,-2,-0.7
C/C(=N\NC(=O)c1ccccn1)C12CC3CC(CC(C3)C1)C2,107,.,.,24,64,-4,-1.3
O=C(Nc1cccc2cccnc12)c1cccc(N2C(=O)CCC2=O)c1,107,i,0.99,-15,112,2,-1.2
CN1CCc2nc(SCc3ccc(Cl)cc3)c(C#N)c(-c3cccs3)c2C1,.,i,1,.,.,-10,-1.1
CCc1nc2ccccc2c(C(=O)NCc2ccc(OC)cc2)c1C,104,i,0.76,-27,112,0,.
Cc1ccc(OCCCC(=O)NC(C)c2ccccc2)c(C)c1 (centres undefined),95,i,1,40,57,6,.
CC1(c2nnc(-c3ccncc3)o2)CC(c2ccc(F)cc2)=NO1 (centres undefined),98,i,1.2,.,.,.,.
N#C/C(C(=O)N1CCOCC1)=c1/s/c(=C\c2ccccn2)c(=O)n1-c1ccccc1,116,i,1.1,.,.,2,.
O=C(NC1CC2CCCC(C1)N2Cc1cccs1)N1CCOCC1 (centres undefined),98,i,0.9,-36,111,6,-1.8
CCn1cc([N+](=O)[O-])c(C(=O)N2N=C(c3ccc(O)c(OC)c3)CC2c2ccccc2O)n1 (centres undefined),110,i,0.85,-53,95,-6,-0.3
O=C(CCCSc1nc2ccccc2s1)Nc1nccs1,80,i,1,50,121,-6,0.0
Cc1cccc(NC(=S)NNC(=O)CCn2nc(C)c([N+](=O)[O-])c2C)c1,38,i,0.93,-254,45,-5,-2.7
CCOc1ccccc1NC(=O)CSc1nnc(-c2ccco2)n1Cc1ccco1,107,i,0.83,-3,106,-5,-0.6
CS(=O)(=O)N1CCC(C(=O)Nc2ccc3c(c2)OCO3)CC1,102,i,1,-20,85,-2,-0.6
COc1ccc(NC(=O)CC2(Cc3ccccc3)CCOC(C)(C)C2)cc1 (centres undefined),113,i,0.9,-31,132,-7,-1.4
COc1ccc(N2CCN(C(CNC(=O)C(=O)NCCc3c[nH]c4ccccc34)c3ccco3)CC2)cc1 (centres undefined),105,i,0.93,-45,101,3,-1.3
CCOC(=O)C1CCN(C(=O)Nc2ccccc2Cl)CC1,92,i,1.1,.,.,-21,-1.6
O=C(Cn1c2ccccc2c2nc3n(c(=O)c21)CCS3)Nc1ccccc1C(F)(F)F,98,i,0.83,7,110,-3,.
N#CCCn1nc(-c2ccccc2)cc1Nc1ccccc1NC(=O)C(F)(F)F,102,i,0.94,15,144,-5,-0.3
CCN(CC)c1ccc(S(=O)(=O)N2CCOCC2)cc1NC(=O)CNCc1ccccc1,100,i,1.4,.,.,.,.
CC(C)c1ccc(Oc2cccc(C(=O)/C(C#N)=C/N(C)C)c2)cc1,100,i,1,26,184,-4,-2.9
CC(C)CC(=O)Nc1sc2c(c1C(=O)O)CCCCC2,95,i,0.99,.,.,11,.
COc1ccc(C(=O)c2ncc(C(F)(F)F)cc2Cl)cc1,103,i,0.95,23,109,2,.
Cc1nnc(NC(=O)NC(C)N2C(=O)C3C4C=CC(C4)C3C2=O)s1 (centres undefined),95,i,0.98,.,.,-4,-1.7
COc1ccc(C)cc1NC(=O)CNc1ccc(C(C)=O)cc1,52,i,0.92,12,99,-4,-1.0
CCCCn1c(N)c(NCc2ccccc2OC)c(=O)[nH]c1=O,101,i,1.1,.,.,3,.
C=C(C)C(=O)N1CC2(CC(c3cccc(NC(=O)COc4ccc(Cl)cc4)c3)=NO2)C[C@@H]1C(N)=O (some centres undefined),108,i,1.1,.,.,.,.
CCn1c(NCCCO)nc2c(c1=O)C(C)(CC)Cc1ccccc1-2 (centres undefined),101,i,0.87,.,.,.,.
C/C(=N/NC(=O)CNC(=O)/C=C/c1ccco1)c1ccc(Cl)cc1,98,i,1.1,.,.,-2,.
CCCN1C(=O)c2cc(C(=O)Nc3ccc(OC)c(OC)c3)ccc2C1Nc1ccc(OC)c(OC)c1 (centres undefined),101,i,0.84,6,104,9,.
Cc1sc(NC(=O)Cn2c(=O)oc3ccccc32)nc1-c1ccc(Cl)cc1,152,i,0.95,.,.,-4,-0.3
COCCn1nnnc1CN1CCC(O)(c2cccc(C(F)(F)F)c2)CC1,111,i,1,16,106,1,-1.1
NNC(=O)CSCc1nc(-c2ccccc2)cs1,95,i,1.1,.,.,.,.
O=C(Nc1ccc2nc[nH]c2c1)c1ccco1,101,i,0.93,.,.,-1,-3.6
COc1cc2c(cc1OC)C(c1ccccc1)CC2=O (centres undefined),99,i,0.95,.,.,.,.
CN1CCN(CCC(=O)Nc2ccc3c(c2)OCO3)CC1,105,i,1.1,32,117,-8,-0.6
c1ccc(Sc2cnc3ccccc3n2)cc1,109,i,0.93,-68,119,-4,-0.8
O=C(CCN1C(=O)c2ccccc2C1=O)NCc1ccncc1,108,i,0.92,.,.,-19,-1.6
Cc1ccc(C(=O)Nc2c(C)n(C)n(-c3ccccc3)c2=O)cc1S(=O)(=O)N1CCOCC1,.,i,0.97,.,.,-11,-1.8
NC1=NC(=Nc2ccc(S(=O)(=O)N3CCOCC3)cc2)c2ccccc21,100,i,0.88,.,.,.,.
CCOC(=O)c1c(C)oc2c(F)c(F)c(F)c(F)c2c1=O,89,i,0.92,.,.,-6,-1.4
CCOc1cc(/C=N/Nc2nn3cnnc3c3ccccc23)ccc1O,103,i,0.9,.,.,.,.
COc1ccc(OC)c(S(=O)(=O)N(C)CC(=O)N2CCN(c3ccccc3)CC2)c1,106,i,0.95,-22,133,-2,-1.6
CSC(=Nc1cccc(C)c1)NC#N,82,i,1,-14,96,8,-1.1
CC/C(=N\N=C1\SC(C)C(=O)N1Cc1ccco1)c1ccccc1 (centres undefined),161,i,1.1,30,100,-9,-1.2
NC(=O)CC1NC(=O)c2ccccc21 (centres undefined),104,i,0.7,.,.,3,-0.7
Cc1cc(NC(=O)CSc2nnc(-c3ccccc3)n2C)no1,109,i,1,.,.,-10,.
Cc1ccccc1NC(=O)C1CC(=O)N(c2ccc3c4c(cccc24)CC3)C1 (centres undefined),114,i,1.1,-17,141,-4,-3.4
# Going on with the list:
SMILES,RGS16-Gao HTS,HSV augment,HSV augment primary fold,INS promoter inh,INS promoter inh cell count,PKD1 inh,GALR2 ag
COc1ccc(C2NC(=S)NC3=C2N2CCC3CC2)cc1 (centres undefined),101,i,1.1,.,.,.,.
O=C(CNC(=O)C1CCCCC1)Nc1ccc(F)c(Cl)c1,107,i,0.97,.,.,-7,.
FC(F)(F)c1cc(-c2cccs2)nc2ncnn12,105,i,0.99,48,101,-3,.
c1ccc(CNc2nc3ccccc3n2CCN2CCOCC2)nc1,107,i,0.93,.,.,1,-1.1
OCCC1CN(Cc2cnc(N3CCCC3)s2)CCN1C1CCCC1 (centres undefined),102,i,1.1,.,.,-4,.
COC(=O)[C@@H]1C[C@@]2(O)[C@H](O)[C@H](O)[C@H](O)C[C@H]2N1Cc1cc(OC)cc(OC)c1,107,i,0.96,.,.,.,.
Cc1ccccc1-n1c(=O)c(C#N)cc2c(=O)n3ccccc3nc21,103,i,1.2,-1,109,-1,74*
Cc1ccc(C(=O)OCC(=O)NCc2ccc3c(c2)OCO3)s1,120,i,0.97,6,68,1,-0.4
N#C/C(=C\C1CC2C=CC1C2)c1nc2ccccc2[nH]1 (centres undefined),104,i,0.64,79*,171*,-3,-0.7
COc1cccc(/C(O)=C2/C(=O)C(=O)N(c3cc(C)on3)C2c2cccs2)c1 (centres undefined),66,i,1,-67,89,3,-2.5
COC(=O)N/N=C/c1cccc([N+](=O)[O-])c1,100,i,0.97,.,.,.,.
CC(=O)c1cccc(NC(=O)COC(=O)c2cccs2)c1,101,i,0.99,17,111,3,.
C=C(C)COc1ccc(-c2[nH]ncc2-c2ccc(OC)c(OC)c2)c(O)c1,92,i,0.87,.,.,-9,0.3
N/C(Cn1nnc(-c2ccccc2)n1)=N\O,102,i,0.9,-30,161,-8,-0.1
O=C(NCCSCc1ccco1)Nc1cccc(Cl)c1,100,i,0.96,-65,174,-3,-1.1
CCOC(=O)N1CCC(c2nc3ccccc3[nH]2)CC1,100,i,0.88,.,.,-8,-1.3
Cc1cccc(OCCCC(=O)NC(C)c2ccccc2)c1 (centres undefined),110,i,0.91,-85,101,17,-0.5
NC(=O)c1nn(-c2ccccc2)nc1N,100,i,0.89,17,101,3,-1.4
Cc1cccc(-c2nc3ccccc3c(=O)n2NC(=O)c2cccs2)c1,106,i,0.91,.,.,-3,-0.9
Cc1ccc(CN2CCN(/N=C/c3ccc(C(F)(F)F)cc3)CC2)cc1,98,i,0.91,37,113,2,-0.8
COc1ccc(N=C2NC(=O)S/C2=C\c2ccc(N(C)C)cc2)cc1,100,?,.,6,76,-10,-2.1
COc1ccc(-c2[nH]ncc2CN2CCN(Cc3cccs3)CC2)cc1F,102,i,0.91,.,.,-5,.

# Records above shown as hits in GALR2 ag.
SMILES,RGS16-Gao HTS,HSV augment,HSV augment primary fold,PKD1 inh,GALR2 ag
Cc1ccccc1-n1c(=O)c(C#N)cc2c(=O)n3ccccc3nc21,103,i,1.2,-1,74*

# Reformatted with tabs: entries from further up.
SMILES	RGS16-Gao HTS	HSV augment	HSV augment primary fold	INS promoter inh	INS promoter inh cell count	PKD1 inh	GALR2 ag
Cc1ccc(C(=O)OCC(=O)NCc2ccc3c(c2)OCO3)s1	120	i	0.97	6	68	1	-0.4
N#C/C(=C\C1CC2C=CC1C2)c1nc2ccccc2[nH]1 (centres undefined)	104	i	0.64	79*	171*	-3	-0.7
COc1cccc(/C(O)=C2/C(=O)C(=O)N(c3cc(C)on3)C2c2cccs2)c1 (centres undefined)	66	i	1	-67	89	3	-2.5
COC(=O)N/N=C/c1cccc([N+](=O)[O-])c1	100	i	0.97	.	.	.	.
CC(=O)c1cccc(NC(=O)COC(=O)c2cccs2)c1	101	i	0.99	17	111	3	.
C=C(C)COc1ccc(-c2[nH]ncc2-c2ccc(OC)c(OC)c2)c(O)c1	92	i	0.87	.	.	-9	0.3
N/C(Cn1nnc(-c2ccccc2)n1)=N\O	102	i	0.9	-30	161	-8	-0.1
O=C(NCCSCc1ccco1)Nc1cccc(Cl)c1	100	i	0.96	-65	174	-3	-1.1
CCOC(=O)N1CCC(c2nc3ccccc3[nH]2)CC1	100	i	0.88	.	.	-8	-1.3
Cc1cccc(OCCCC(=O)NC(C)c2ccccc2)c1 (centres undefined)	110	i	0.91	-85	101	17	-0.5
NC(=O)c1nn(-c2ccccc2)nc1N	100	i	0.89	17	101	3	-1.4
Cc1cccc(-c2nc3ccccc3c(=O)n2NC(=O)c2cccs2)c1	106	i	0.91	.	.	-3	-0.9
Cc1ccc(CN2CCN(/N=C/c3ccc(C(F)(F)F)cc3)CC2)cc1	98	i	0.91	37	113	2	-0.8
COc1ccc(N=C2NC(=O)S/C2=C\c2ccc(N(C)C)cc2)cc1	100	?	.	6	76	-10	-2.1
COc1ccc(-c2[nH]ncc2CN2CCN(Cc3cccs3)CC2)cc1F	102	i	0.91	.	.	-5	.

# Compounds as they come; overall some 1.1% were active at least once.
